Screens: PubChem, several laboratories
CSC inhib – cancer stem cell inhibition; cancer stem cell-like cells viability, luminescence; inhibition, % at 7.5 µM; 300,000 tested, 1.1% active; AID 2717;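 active means mean at 75% or more and at least half the replicates too; tested in HMLE shEcad cells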;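 further: 0% = median of negative and 100% = median of positive control wells; the first replicate is given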
Rce1 inh – inhibitors of yeast Ras-converting enzyme; Q03530; yeast membranes, quenched prenylated peptide cleavage fluorescence; calls only; 290,000 tested, 0.27% active;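 active means fall in fluorescence gain of 50% or more versus controls, with final raw signal at or below 3038400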;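 further: plate controls were neutral control wells for no effect and wells lacking membranes for full effect; tested at 10 µM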
Target sequence (Q03530 whole entry, looked up): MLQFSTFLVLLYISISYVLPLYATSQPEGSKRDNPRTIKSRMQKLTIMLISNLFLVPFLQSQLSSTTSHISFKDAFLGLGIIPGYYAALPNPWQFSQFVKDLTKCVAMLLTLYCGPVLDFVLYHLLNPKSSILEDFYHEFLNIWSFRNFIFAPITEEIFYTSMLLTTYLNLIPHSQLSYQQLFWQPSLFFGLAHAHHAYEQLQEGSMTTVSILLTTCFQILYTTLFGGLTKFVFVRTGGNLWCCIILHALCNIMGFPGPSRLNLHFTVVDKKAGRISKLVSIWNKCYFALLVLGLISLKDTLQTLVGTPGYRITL
HIV Env fusion – HIV envelope-mediated fusion inhibition | HeLa-JRFL Env/CEM21 cell fusion, luciferase | inhibition, % at 12.3 µM | 360,000 tested, 1.1% active | AID 651610;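 active means mean replicate inhibition score of at least 50 and every replicate individually at or above 50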;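 further: 0% = plate neutral controls and 100% = maraviroc near 300 nM; one replicate is shown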
UUG fidelity – alters start codon recognition fidelity in yeast | 350,000 tested, 0.13% active | S. cerevisiae UUG-firefly luciferase reporter, luminescence/redox ratio | activity score, % at 18.7 µM | AID 602363;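 active means replicate mean at a twofold rise or more, about +100% in these data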;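 further: firefly luciferase made from a UUG start codon reports start codon fidelity; reporter light over untreated wells divided by growth signal over untreated wells; some hits fall short of that in this replicate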
PABP FP inh – blocks human PABP binding to poly(A) RNA. 290,000 tested, 1% active. AID 2014. inhibition, % at 35 µM. P11940. fluorescence polarization;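 active means 50% or more with normal probe brightness, or confirmed in later tests; about a fifth of its hits are not listed in these tables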;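 further: calls also rest on retests at 20 µM and on dose response follow-up; controls were probe without protein and protein plus probe with vehicle; some compounds called inactive have numbers as strong as hits; many hits fall short of the cut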
eIF4H inh – inhibitors of RNA binding by human eIF4H. eIF4H fluorescence polarization binding assay. 290,000 tested, 0.94% active. AID 2012. Q15056. inhibition, % at 35 µM;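 active means 50% or more with normal probe brightness, or confirmed in later tests; about a fifth of its hits are not listed in these tables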;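 further: calls also rest on retests at 20 µM and on dose response follow-up; 0% = protein and probe with vehicle and 100% = probe without protein; strong numbers were not always called active; many hits fall short of the cut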
MT1-MMP act inh – blocks activation of human MT1-MMP. P50281. HT1080 RFP-PRO-GFP cells, GFP/RFP ratio fluorescence, overnight; percent of plate control window, DMSO zero. GFP/RFP ratio change, % at 20 µM. 360,000 tested, 0.061% active;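 active means GFP/RFP ratio change of at least 30% with cell ATP level not reduced by more than half and red fluorescence within 50% of control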; further: strong numbers were not always called active
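Read-out: GFP/RFP fluorescence ratio; Test system: RFP-PRO-GFP reporter HT1080 cells; Compound dosing: single-point 20 µM compound, 1% DMSO; Times: overnight compound exposure at 37 °C.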
eIF4H inh retest – also measured in eIF4H inh; calls as there; inhibition, %; compound at 20 µM; confirmation average;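 mean of two retest wells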
PABP FP inh retest – further read-out of PABP FP inh, marked with its call; inhibition, %; compound at 20 µM; confirmation repeats;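 mean of two retest wells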
MT1-MMP act inh RFP – recorded beside MT1-MMP act inh, whose call it bears; RFP signal change, %; measured here: RFP expression control read;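 0 = vehicle wells; hits needed this value within 50% of zero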
* marks the source's active call; other numbers are inactive results; i = inactive; · = no result given. An unsorted share of the library, and some 3% of all compounds hit somewhere here.

SMILES | CSC inhib | Rce1 inh | HIV Env fusion | UUG fidelity | PABP FP inh | eIF4H inh | MT1-MMP act inh | MT1-MMP act inh RFP | others
COc1cc(CNC2CCCC2)cc(Cl)c1OCc1ccc(F)cc1 | -5 | i | · | · | -10 | -5 | 3 | -1
CN(C)c1cccc(C(=O)OCC(=O)NCC2CCCO2)c1 (stereo not drawn) | -21 | i | · | -11 | -8 | -3 | 1 | 1
Cn1c(=O)n(CCCOc2ccc(Cl)cc2)c2ccccc21 | 8 | i | · | 7 | -10 | 12 | 0 | -2
Cc1ccc(CCNC(=O)c2nnn(-c3cc(C)cc(C)c3)c2N)cc1 | 3 | i | 32 | -7 | 11 | -14 | -2 | -2
O=C(CCNc1ccc(Cc2ccncc2)cc1)c1cccc([N+](=O)[O-])c1 | 26 | i | 6 | · | -6 | -9 | -3 | -11
Cn1nc([N+](=O)[O-])nc1S(C)(=O)=O | · | i | 24 | · | -14 | 98 | -1 | -6 | eIF4H inh retest=16;PABP FP inh retest=14
COc1cccc(-c2cnc3c(NC=O)cc(-c4ccccc4Oc4ccccc4)cn23)c1 | · | · | 39 | -19 | · | · | -10 | -9
CCOC(=O)C1(CCOc2ccccc2)CCN(Cc2cccn2-c2ncccn2)CC1 | 4 | · | 2 | · | 0 | 13 | -3 | -1
CCOC(=O)C1(CCCc2ccccc2)CCN(C(=O)Cn2nc(C)nc2C)CC1 | -7 | i | 5 | -3 | 0 | -2 | 3 | -3
Cc1c(Cl)c(C(=O)NNC(=S)Nc2ccc(F)cc2)nn1C | -4 | i | 6 | -42 | 3 | 12 | 1 | 5
Cc1ccc(CN2CCN(c3cccc4[nH]ccc34)CC2)cc1 | 10 | i | -6 | -14 | -7 | 0 | -1 | -2
COc1cc(C(=O)OCC(=O)NC2CCCCCC2)ccc1OCC(C)C | 3 | i | 12 | -10 | · | · | 0 | -2
Cc1ccc(CSCc2nnc(SCC(=O)N3CCN(c4ccccc4)CC3)n2C)cc1 | 4 | i | · | -12 | -8 | -2 | -2 | -18
COc1ccc(S(=O)(=O)N2CCC(C(=O)NCc3ccccn3)CC2)cc1Cl | 2 | i | · | · | -3 | 5 | -2 | 4
OC(COCc1cccs1)CN1CCN(c2cccc(Cl)c2)CC1 (stereo not drawn) | 42 | i | -2 | · | 17 | 12 | 5 | 0
COc1ccc(S(=O)(=O)Nc2nnc(C)s2)cc1 | 7 | i | -39 | -10 | -9 | 1 | 6 | 11
C/C(=N/NC(=O)Cc1cccs1)c1ccco1 | -5 | i | -13 | · | 4 | -1 | 4 | 2
CCN(CC)c1ccc(C(=O)OCC(=O)N2CCN(c3ccccc3)CC2)cc1 | -11 | i | · | -5 | 8 | 3 | 2 | 2
Cc1c(NS(=O)(=O)c2ccccc2)cc(Cl)c(O)c1C | 9 | i | -32 | -15 | 1 | 7 | -9 | 1
CC(C)(C)N(Cc1ccccc1)C(=O)COC(=O)c1ccc(Br)o1 | -16 | · | -2 | 7 | · | · | 2 | 4
CCn1cc(C(=O)N2CCc3ccccc32)c(=O)c2cc(S(=O)(=O)N3CCCCCC3)ccc21 | 2 | i | 14 | -24 | 5 | -9 | 10 | 6
CCOC(=O)c1cc(NC(=O)c2ccc(Cl)cc2)c(=O)oc1-c1ccccc1 | -6 | i | -70 | -23 | -1 | -6 | 1 | 2
CN(C)c1nc(NCc2ccccc2)nc(N/N=C/c2ccc(Cl)cc2Cl)n1 | 4 | i | -30 | · | 7 | 4 | 0 | -1
CC(=O)c1cccc(OCC(=O)N2CCN(c3ccc(C(F)(F)F)cn3)CC2)c1 | 5 | i | 19 | · | 2 | 0 | 3 | -3
C[C@]12CCC(=O)C[C@@H]1CC[C@@H]1[C@@H]2CC[C@]2(C)C=CC[C@@H]12 | 0 | i | -6 | -12 | 10 | -9 | 5 | 6
CCOc1cc(/C=N/NC(=O)CCn2nc(C)cc2C)ccc1O | · | i | -2 | · | 11 | 0 | 3 | 4
COc1ccc(S(=O)(=O)Nc2ccc3oc(C)c(C(C)=O)c3c2)cc1 | 56 | i | 51 | -16 | 2 | 5 | -5 | -22
COc1ccc(NC(=O)[C@H](NC(=O)[C@@H]2Cc3ccccc3CN2)c2ccccc2)cc1 | -12 | i | 0 | -28 | 9 | -14 | 2 | 1
Cc1ccc(N2CC(c3nc4ccccc4n3C)CC2=O)cc1C (stereo not drawn) | -10 | i | · | -8 | 8 | 4 | -5 | 3
CN1CCN(Cc2c(O)ccc3c(=O)c(Oc4ccccc4Cl)c(C(F)(F)F)oc23)CC1 | -2 | i | -3 | -1 | -5 | -5 | -2 | 1
O=C(CC(C(=O)O)c1ccc(Cl)cc1)c1ccccc1 (stereo not drawn) | -10 | i | -10 | -27 | 17 | 18 | 2 | 3
CC1(C)CC(NC(=O)C(c2ccccc2)c2ccccc2)CC(C)(C)N1 | -10 | i | 8 | -3 | 1 | -2 | -2 | -4

Sorted by molar mass (largest number first): 12 of the compounds above.
SMILES | CSC inhib | Rce1 inh | HIV Env fusion | UUG fidelity | PABP FP inh | eIF4H inh | MT1-MMP act inh | MT1-MMP act inh RFP | others
CCn1cc(C(=O)N2CCc3ccccc32)c(=O)c2cc(S(=O)(=O)N3CCCCCC3)ccc21 | 2 | i | 14 | -24 | 5 | -9 | 10 | 6
CN1CCN(Cc2c(O)ccc3c(=O)c(Oc4ccccc4Cl)c(C(F)(F)F)oc23)CC1 | -2 | i | -3 | -1 | -5 | -5 | -2 | 1
CN(C)c1nc(NCc2ccccc2)nc(N/N=C/c2ccc(Cl)cc2Cl)n1 | 4 | i | -30 | · | 7 | 4 | 0 | -1
COc1ccc(NC(=O)[C@H](NC(=O)[C@@H]2Cc3ccccc3CN2)c2ccccc2)cc1 | -12 | i | 0 | -28 | 9 | -14 | 2 | 1
CC(=O)c1cccc(OCC(=O)N2CCN(c3ccc(C(F)(F)F)cn3)CC2)c1 | 5 | i | 19 | · | 2 | 0 | 3 | -3
CCOC(=O)c1cc(NC(=O)c2ccc(Cl)cc2)c(=O)oc1-c1ccccc1 | -6 | i | -70 | -23 | -1 | -6 | 1 | 2
CCN(CC)c1ccc(C(=O)OCC(=O)N2CCN(c3ccccc3)CC2)cc1 | -11 | i | · | -5 | 8 | 3 | 2 | 2
CC(C)(C)N(Cc1ccccc1)C(=O)COC(=O)c1ccc(Br)o1 | -16 | · | -2 | 7 | · | · | 2 | 4
Cc1ccc(N2CC(c3nc4ccccc4n3C)CC2=O)cc1C (stereo not drawn) | -10 | i | · | -8 | 8 | 4 | -5 | 3
Cc1c(NS(=O)(=O)c2ccccc2)cc(Cl)c(O)c1C | 9 | i | -32 | -15 | 1 | 7 | -9 | 1
O=C(CC(C(=O)O)c1ccc(Cl)cc1)c1ccccc1 (stereo not drawn) | -10 | i | -10 | -27 | 17 | 18 | 2 | 3
C[C@]12CCC(=O)C[C@@H]1CC[C@@H]1[C@@H]2CC[C@]2(C)C=CC[C@@H]12 | 0 | i | -6 | -12 | 10 | -9 | 5 | 6
